Compound activity from PubChem BioAssay.
Sfp inh: inhibitors of Bacillus subtilis Sfp phosphopantetheinyl transferase. actives 3.5% (n = 310,000). Potency, µM, without a hit: max response, negative = inhibition, hits mostly inhibitors. Q9F4F7. Biochemical Sfp PPTase activity, qHTS; active = well fitted inhibition curve with a large enough effect; inconclusive = small, poorly fitted or top-dose-only effect, or another doubt; inactive = no such curve, though single readings can be large or run the other way;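 note: the enzyme is Sfp with the accession as filed and its product quenches rhodamine fluorescence; potency is the fitted concentration of half-maximal effect; 0% = enzyme reaction without inhibitor and -100% = no enzyme wells; top concentration of the series not given in the record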
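Step 1, compound plus 15 nM Sfp-PPTase, 15 min, room temperature. Step 2, add rhodamine-CoA (5 uM) and BHQ-2-YbbR (12.5 uM). Step 3, read 525/598 nm fluorescence at 0 and 30 min.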
ClpP mod: qHTS Assay for Activators of ClpP. ATP-dependent Clp protease proteolytic subunit (Bacillus subtilis (strain 168)), P80244. purified B. subtilis ClpP, FRET peptide cleavage, 20 min. Potency, µM (series often up to 57.5 µM), for inactives: at the highest dose activity change, negative = active. actives 1.9% (n = 340,000). AID 651965, 2013; active = well fitted falling curve with a large enough effect; inconclusive = small, poorly fitted or top-dose-only effect; inactive = no such curve, though single readings can be large or run the other way; note: potency is the fitted concentration of half-maximal effect; the source files actives as falling curves though it sought activators and does not explain the sign; nearly all actives have a fitted effect of over 65% in size; many hits overshoot -100%
Target sequence (P80244 whole entry, looked up): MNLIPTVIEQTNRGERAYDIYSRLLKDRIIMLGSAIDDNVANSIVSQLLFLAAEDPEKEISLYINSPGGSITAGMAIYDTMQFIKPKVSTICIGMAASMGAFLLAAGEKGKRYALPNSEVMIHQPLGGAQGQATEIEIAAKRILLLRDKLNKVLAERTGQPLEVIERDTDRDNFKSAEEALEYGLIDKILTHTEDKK
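Buffer: 100 mM Tris/HCl pH8, 100 mM KCl, 0.05% low protease BSA, 2.5% glycerol, 0.01% Tween-20. ClpP 10 microg/mL final; 20 min RT; delta FRET normalized to ADEP and DMSO controls.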
D2 potentiator: human D2 receptor positive allosteric modulation; P14416; DiscoveRx D2 beta-arrestin cells, luminescence, 90 min; 100% = 57 uM dopamine signal; potentiation, % (no concentration beside the values); actives 0.23% (n = 360,000); active = potentiation of 50% or more; inconclusive = 30% to 50%; inactive = 30% or less;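 note: compound concentration not given in the record; tested on top of an EC20 dose of dopamine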
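PathHunter beta-arrestin assay in DiscoveRx D2 cells. Compounds were added with an EC20 of dopamine (50 nM final) for 90 min at 37 deg C. Luminescence was read 1 h after detection reagent, with 57 uM dopamine as the EC100 control.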
gsp antagonist: antagonizes gsp, the McCune-Albright syndrome mutation | gsp-mutant cells, cAMP HTRF, 30 min; control for the full effect not named in the record | Potency, µM (highest dose often 76.9 µM), without a hit: top-dose activity change, negative = inhibition, actives largely listed as inhibitors | actives 0.4% (n = 340,000) | AID 624288; active = falling curve of any shape with a large fitted effect; inconclusive = falling curve, mostly with a smaller effect; inactive = flat or rising curve; cell line not stated here;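 note: intracellular cAMP measured with PDE inhibitor Ro 20-1724 present during compound exposure; potency is the fitted concentration of half-maximal effect; % is set by controls: 0 for no effect and ±100 for the full control effect; nearly all actives have a fitted effect of over 65% in size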
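Measurement of cellular cAMP by homogeneous time-resolved fluorescence following a 30 min compound exposure at 37C. The PDE inhibitor […] was present throughout; the assay buffer was DPBS with 0.05% BSA and 0.005% Tween 20.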
gsp agonist: agonists of gsp mutant (McCune-Albright syndrome); gsp mutant cells, cAMP HTRF, 30 min; control for the full effect not named in the record; Potency, µM (doses to about 76.9 µM), without a hit: at the highest dose activation (cAMP increase), most hits filed as activators; actives 0.13% (n = 340,000); active = well fitted activation curve with a large enough effect; inconclusive = small, poorly fitted or top-dose-only effect, or another doubt; inactive = no such curve, though single readings can be large or run the other way; cell line not stated here;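 note: phosphodiesterase inhibitor Ro 20-1724 added with compounds to block cAMP breakdown; potency is the fitted concentration of half-maximal effect; nearly all actives have a fitted effect of over 60% in size; about a fifth of the inactives were tested at one dose only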
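Cells stably selected in G418 were plated at 2000/well, grown 16-24 hr, then given compounds in DMSO with the PDE inhibitor […] (300 uM solution added) for 30 min at 37C; cAMP was read by HTRF.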
Menin-MLL FL inh: inhibitors of human menin-MLL interaction, wild-type MLL peptide. Fluorescence polarization, fluorescein-MLL peptide displacement from menin. FP activity change, % at 61.4 µM. 290,000 tested, under 10 active. AID 1766; inconclusive = falling polarisation curve, or a change in total fluorescence; inactive = total fluorescence flat and polarisation flat or rising; no compound was filed as active; the % refers to the polarisation; negative = inhibition;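 note: % of control where 0% means no effect; inhibitors lower the polarisation; unlabelled MLL peptide was the positive control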
TRPV1 potentiator: enhances activation of the human vanilloid receptor TRPV1. Q8NER1. potentiation, % at 8.33 µM. AID 540277. TRPV1-expressing cells, Fluo-8 calcium influx, capsaicin EC20 potentiation; host cell line not named in the record; control for the full effect not named in the record. actives 0.02% (n = 320,000); active means potentiation above 80%; inconclusive means 30% to 80%; inactive means below 30%; note: 0% is about no effect
Target sequence (Q8NER1 whole entry, looked up): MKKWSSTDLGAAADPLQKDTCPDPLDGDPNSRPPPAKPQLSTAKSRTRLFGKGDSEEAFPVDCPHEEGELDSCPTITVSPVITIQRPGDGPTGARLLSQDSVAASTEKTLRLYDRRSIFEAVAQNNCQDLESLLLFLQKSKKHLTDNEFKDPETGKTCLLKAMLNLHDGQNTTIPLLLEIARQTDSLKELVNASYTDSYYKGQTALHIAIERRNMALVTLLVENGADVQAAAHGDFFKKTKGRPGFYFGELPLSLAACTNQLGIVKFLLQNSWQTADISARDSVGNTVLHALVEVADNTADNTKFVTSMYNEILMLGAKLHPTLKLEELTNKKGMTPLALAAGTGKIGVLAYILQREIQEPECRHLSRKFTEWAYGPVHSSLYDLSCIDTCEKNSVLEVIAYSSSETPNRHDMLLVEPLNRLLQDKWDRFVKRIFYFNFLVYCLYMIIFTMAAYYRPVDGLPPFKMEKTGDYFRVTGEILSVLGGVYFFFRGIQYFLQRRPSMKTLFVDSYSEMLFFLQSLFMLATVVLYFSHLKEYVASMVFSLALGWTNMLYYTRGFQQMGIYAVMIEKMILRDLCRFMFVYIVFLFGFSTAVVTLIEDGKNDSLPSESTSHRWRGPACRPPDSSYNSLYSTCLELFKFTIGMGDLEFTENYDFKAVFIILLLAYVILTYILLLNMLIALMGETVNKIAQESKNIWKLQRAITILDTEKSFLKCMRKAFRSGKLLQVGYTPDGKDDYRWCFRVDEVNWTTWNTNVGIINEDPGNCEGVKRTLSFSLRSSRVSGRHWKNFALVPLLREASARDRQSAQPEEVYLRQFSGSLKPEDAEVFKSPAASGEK
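Cells expressing TRPV1 were dye-loaded with Fluo-8 and read kinetically: 10 s baseline, 3 min after compound (agonist portion), then 2 min after EC20 capsaicin (allosteric enhancer portion). Calcium-bound dye fluorescence at 480/520 nm.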
* marks the source's active call; other numbers are inactive results; ? = inconclusive; · = no result given; & = joins results of further samples; [ ] = another dose, or the depositor's remark.

SMILES,Sfp inh,ClpP mod,D2 potentiator,gsp antagonist,gsp agonist,Menin-MLL FL inh,TRPV1 potentiator
CN(C)c1c(-c2ccccc2)cc(-c2ccccc2)[nH]c1=O,-19%,·,·,·,·,0.5,-18
COc1ccccc1-c1nn(-c2ccccc2)cc1C(=O)NCC(c1ccco1)N1CCCC1 (stereo unspecified),·,-4.7%,-4,3%,6%,·,-14
CC(C)(C)N1CSC(=S)N(Cc2ccccc2)C1,-8%,3.7%,-9,10%,4%[15.4 µM],-2.0,28
Cc1ccc(S(=O)(=O)N/N=C2/CC(c3ccccc3)Oc3ccccc32)cc1 (stereo unspecified),11%,1.5%,-13,-14%,15%,3.3,0
CCn1cnnc1SCC(=O)Nc1ccccc1C(=O)NC1CC1,·,1.8%,-9,8%,-11%[15.4 µM],·,·
CCN(CC(=O)Nc1ccc2c(c1)OCCO2)C(=O)C(C)Oc1ccc(F)cc1 (stereo unspecified),·,·,3,-7%,6%[15.4 µM],·,·
O=S(=O)(Nc1cccc2ncccc12)c1cccs1,6%,0.4%,-41,8%,1%,-1.1,4
Cc1ccc(O)c(CNc2ccc(S(=O)(=O)Nc3nccs3)cc2)c1,15%,·,-2,-21%,3%[15.4 µM],1.7,-4
Cc1ccsc1CN(C)C(=O)C(NC(=O)c1cccc(S(=O)(=O)N2CCOCC2)c1)C(C)C (stereo unspecified),·,-0.9%,3,-15%,-31%,·,-16
CCc1ccc(/C=C/C(=O)c2cc(Br)ccc(=O)c2O)cc1,14µM*,-1.6%,-5,-10%,2%,?,12
OCC[C@@H]1C[C@@H](O)[C@H](O)[C@]2(CCCCO2)O1,6%,0.3%,0,10%,5%,3.1,-5
CN1C(=O)[C@H]2[C@@H](c3ccc(C(F)(F)F)cc3)N[C@]3(CCCN(Cc4ccc(C(F)(F)F)cc4)C3=O)[C@H]2C1=O,·,0.5%,-1,·,-51%[inhibitor],·,·
COc1ccc(CCn2c(C)nc3ccccc3c2=O)cc1OC,10%,-1.5%,4,-3%,-48%,4.2,6
c1ccc(Cn2cc(CSc3ccccc3)nn2)cc1,-6%,-0.6%,-6,9%,·,2.4,-12
Cc1ncc(CN2CCC(CO)(CCOc3ccccc3)CC2)s1,7%,2.5%,-33,22%,6%,1.1,2
O=C(c1ccc2ncsc2c1)N1CCCCC1,-22%,-3.0%,-6,8%,-1%,·,?
COc1ccc(NC(=O)CC2C(=O)NCCN2C(=O)c2ccc(Cl)cc2)cc1 (stereo unspecified),10%,0.7%,-7,-4%,-20%,-2.3,-2
O=C(NCC1CCCN(Cc2ccc3nonc3c2)C1)c1ccc(F)cc1 (stereo unspecified),-6%,·,-8,-6%,12%[15.4 µM],-0.5,-11
CC1CCCN(C(=O)Cn2nnc(-c3ccccc3F)n2)C1 (stereo unspecified),24%,2.5%,0,13%,-16%,-2.3,-14
O=C(CC(=O)Nc1ccc(Cl)c(Cl)c1)N/N=C/c1ccc(O)cc1,4%,-8.3%,-29,-20%,7%,·,7

The list goes on, overlapping the part above by 3 compounds.
SMILES,Sfp inh,ClpP mod,D2 potentiator,gsp antagonist,gsp agonist,Menin-MLL FL inh,TRPV1 potentiator
O=C(NCC1CCCN(Cc2ccc3nonc3c2)C1)c1ccc(F)cc1 (stereo unspecified),-6%,·,-8,-6%,12%[15.4 µM],-0.5,-11
CC1CCCN(C(=O)Cn2nnc(-c3ccccc3F)n2)C1 (stereo unspecified),24%,2.5%,0,13%,-16%,-2.3,-14
O=C(CC(=O)Nc1ccc(Cl)c(Cl)c1)N/N=C/c1ccc(O)cc1,4%,-8.3%,-29,-20%,7%,·,7
CCc1ccc(NC2=CC(=O)CC(C)(C)C2)cc1,12%,0.5%,-4,1%,-3%[15.4 µM],0.3,-12
c1ccc(N2CCN(Cc3ccnc4ccccc34)CC2)cc1,-9%,-2.8%,-5,7%,4%,3.4,-4
O=C(NCCN1CCOCC1)c1ccc2ccccc2n1,-2%,-8.4%,-10,14%,-16%,1.0,11
CNC(=O)C1CC(=O)N(Cc2ccc3c(c2)OCO3)C(=Nc2ccc(OC)cc2)S1 (stereo unspecified),-8%,-0.4%,-11,-5%,7%,-2.1,10
O=C(NCc1cccs1)c1cccc(N2CCCC2=O)c1,16%,0.9%,-14,-1%,17%,3.5,7
Cc1ccc(SCCC(=O)Nc2ccccc2C(=O)N2CCOCC2)cc1,11%,0.4%,1,7%,4%,-1.2,0
O=C(COC(=O)c1nc(Cl)c(Cl)c(Cl)c1Cl)c1ccc[nH]1,·,0.7%,-18,-15%,?,·,9
Cc1cccc2c1Sc1ccccc1CC2=O,6%,-0.7%,-13,-12%[15.4 µM],?,-0.3,14
COc1cc(C2c3cc4c(cc3OC(N3CCOCC3)C2C)OCO4)cc(OC)c1OC(C)=O (stereo unspecified),·,0.5%,-13,6%,-27%,·,·
C=C(C)CSc1nc2ncccc2[nH]1,-13%,-1.0%,-24,8%,-4%,2.7,-13
CCC1(CC)C(=O)NC(=O)NC1=S,·,-0.9%,-2,11%,2%,·,·
O=C(NCCc1ccco1)C(=O)NCC1OCCCN1S(=O)(=O)c1ccccc1 (stereo unspecified),11%,-1.1%,7,1%,-44%[inhibitor],·,5
CCOc1ccccc1NC(=O)C(CC)Sc1nc2ccncc2[nH]1 (stereo unspecified),?,0.4%&-2.0%,4,1%,-21%,-7.3,-1
COc1ccc(C2Nc3ccccc3C(=O)N2c2ccccc2)cc1CN1CCOCC1 (stereo unspecified),28%,·,-13,-5%,23%,0.0,7
Cc1cc(C)nc(Nc2n[nH]c(COc3ccccc3)n2)n1,9%,-5.8%,-3,0%,2%,-1.2,-33
C=CCn1c(SCC(=O)Nc2ncc(Cc3cc(C(F)(F)F)ccc3Cl)s2)nnc1-c1ccncc1,2%,0.0%,3,9%,-14%,1.7,-4
O=C(Nc1cnc2ccccc2c1)c1cccnc1,16%,0.1%,-6,1%,-22%,2.0,-14
CCc1ccc(C(=O)COC(=O)CNC(=O)c2cccs2)cc1,12%,-1.6%,-11,-5%,-10%,-2.2,-3
Cc1ccc(C(=O)NCCc2nnc3c(C(F)(F)F)cc(Cl)cn23)o1,10%,-6.5%,0,10%,?,-4.3,-8
COc1ccc(CCNC(=O)CSc2ccc(Br)cc2)cc1OC,-3%,0.5%,-1,6%,?,-0.6,-19
CN(C)c1ccc(CNc2nc3ccccc3n2C)cc1,·,-2.0%,-26,·,-107%[inhibitor],·,·
O=C(CC1Sc2ccccc2NC1=O)NNc1ccc(F)cc1 (stereo unspecified),·,-1.1%,-20,-3%,11%,·,·
CN(C)CCCC(=O)c1ccc2c(c1)OCO2,13%,-19%,-12,3%,-10%,3.3,22
O=C(O)CCc1nn2c3ccccc3n(CCO)c2nc1=O,15%,·,3,10%,-14%[15.4 µM],0.3,-4
CCN1CCN(C(=S)NCc2ccc(C)cc2)CC1,9%,-1.7%,-18,10%,7%,-3.4,6
O=C(COc1ccc([N+](=O)[O-])cc1)Nc1ccc(S(=O)(=O)N2CCOCC2)cc1,14%,-0.3%,0,1%,-8%[15.4 µM],0.0,-8
CC1=C(C)CC(C(=O)NCCCN2CCCC2=O)C(C(=O)O)C1 (stereo unspecified),8%,-1.0%,4,6%,-27%,·,-12
Cn1c(CN2CCCC2)nc2cc(NS(=O)(=O)c3ccccc3)ccc21,14%,-1.6%,-30,-9%,?,-1.9,-2
CCOC(=O)c1ccc(NC(=O)CN2C(=O)C(=O)N(CC(C)C)C2=O)cc1,12%,-1.0%,-8,3%,-50%,3.3,1
COc1ccccc1Cn1c(=S)[nH]c2cc(C(=O)N3CCCC3)ccc2c1=O,-2%,-2.4%,-4,-17%,?,·,-7
O=C(CSc1ccccc1)N1CCN(S(=O)(=O)c2ccccc2F)CC1,-3%,·,1,-5%,?,-1.5,-4
CC1CCCC(NC(=O)Cc2ccc(Br)cc2)C1C (stereo unspecified),2%,0.6%,6,-9%,2%,1.0,-2
CSC1=C(C#N)C(c2ccc(C(C)C)cc2)CC(=O)N1 (stereo unspecified),-2%,3.6%,-4,-4%,-38%,2.1,-18
COc1cccc(/C=N/NC(=O)Cn2nc(C)c([N+](=O)[O-])c2C)c1O,12%,0.0%,1,0%,-1%[15.4 µM],6.1,-10
COc1ccc(C(=O)NC2CC2)cc1OC1CCN(Cc2cc(C)c(C)cc2C)CC1,0%,-0.7%,-23,0%,5%[15.4 µM],·,4
COCCn1c(SCc2ccccc2)nc2c1c(=O)[nH]c(=O)n2C,5%,·,-2,4%,31%,1.2,12
O=C(Nc1ccc(N2CCCC2)c(Cl)c1)c1ccc(Br)o1,79µM*,0.3%,-6,-9%,-27%,5.3,-1
OCc1c[nH]c(=S)n1CCOc1cccc(C(F)(F)F)c1,?,1.1%,-12,2%,1%,3.2,4
CC(=O)Nc1cccc(Cl)c1C(=O)O,20%,-0.1%,-3,0%,-2%,1.9,4
COc1ccc(-n2cnnc2SCC(=O)Nc2nc(C)c(Cl)cc2Cl)cc1,-3%,0.0%,-5,5%,-24%,3.4,9
CCOC(=O)C1CCN(C(=O)C2CCN(S(=O)(=O)CC)CC2)CC1,7%,1.0%,17,6%,-1%,-0.7,9
O=C(Nc1c2c(nn1-c1ccccc1)CS(=O)(=O)C2)c1ccc(Br)o1,·,0.7%,-1,·,-58%[inhibitor],·,·
COc1ccc(-c2nnc(SCC(=O)N3CCN(c4ccccc4)CC3)o2)cc1OC,6%,-2.9%,-3,-2%,-26%,2.6,2
CC(=O)CSc1nc(N(C)C)nc(N(C)C)n1,3%,·,-3,-5%,-4%,4.1,3

Not a hit list; about 5.1% have a hit in one of these screens.
